# Vaccinia mCherry – vaccinia inhibition (mCherry reporter). Vaccinia virus mCherry reporter infection, fluorescence; about a quarter of the inactives have no number. AID 720579. Potency, µM (titrated, usually from 36.5 µM), for the others: top-dose activity change, negative = inhibition, usual class: inhibitors. 0.63% of 310,000 active; active = well fitted inhibition curve with a large enough effect; inconclusive = small, poorly fitted or top-dose-only effect; inactive = no such curve, though single readings can be large or run the other way; tested in A549 cells; further: nearly all actives have a fitted effect of over 35% in size; inactives centre near -10
# VACV Venus inh – inhibitors of vaccinia virus (Venus reporter); Vaccinia virus Venus reporter expression, fluorescence; 0.46% of 330,000 active; Potency, µM (top dose mostly 36.5 µM), without a hit: top-dose activity change, negative = inhibition, usual class: inhibitors; active means well fitted inhibition curve with a large enough effect; inconclusive means small, poorly fitted or top-dose-only effect; inactive means no such curve, though single readings can be large or run the other way; tested in A549 cells; further: nearly all actives have a fitted effect of over 30% in size; inactives centre near -10
# Starred values were filed as active, the others as inactive; i = inactive; ? = inconclusive; / = no result given; & = joins results of further samples. On the % scale 0 is the no-effect control and ±100 the full control effect; potency means the concentration at half of the fitted maximal effect.
SMILES,Vaccinia mCherry,VACV Venus inh
CCOc1cc(/C=N/n2cnnc2)ccc1OS(=O)(=O)c1ccc(C)cc1,-2%,2%
COC(=O)c1cc2sc(Cl)cc2n1CC(=O)N1CCCc2ccccc21,-9%,-1%
Cc1c(Cc2ccccc2)c(=O)oc2cc(OCC(=O)N3CCC(C(=O)O)CC3)ccc12,-15%,-8%
CN1CCN(C(=O)c2ccc(CSc3nc4ccncc4n3Cc3ccc(F)cc3)cc2)CC1,i,-21%
CCOc1ccccc1NC(=O)c1nc(S(=O)(=O)Cc2ccccc2F)ncc1Cl,21%,-8%
CC(C)(C)c1ccc(C(=O)N2CCC2(C)C(=O)NCc2cccs2)cc1 (stereo not given),29%,1%
COc1ccc(NC(=O)N(C)C[C@H]2Oc3c(NS(=O)(=O)c4cccs4)cccc3C(=O)N([C@@H](C)CO)C[C@@H]2C)cc1,i,-9%
O=C(COC(=O)C1CC2CCCC(C1)C2=O)Nc1cccc(F)c1 (stereo not given),-11%,-9%
CCOC(=O)C1=C(COC(=O)c2ccc(Cl)nc2)NC(=O)NC1C (stereo not given),-27%,-23%
COc1cccc(C(=O)Nc2cccc(C(=O)OCc3cc(=O)n4c(C)csc4n3)c2)c1,-12%,-7%
CC(C)Cn1c(N)c(C=O)c(=O)[nH]c1=O,-5%,-3%
CN(CCc1ccccn1)C(=O)Nc1ccc(C(C)(C)C)cc1,-9%,-27%
COc1ccc(C(=O)c2sc3nc(-c4ccc(C)cc4)cc(C(F)(F)F)c3c2N)cc1,-19%,-12%
NC(N)=NCc1cccc(I)c1,-12%,-29%
Clc1ccccc1-c1nnc(-c2ccc3c(c2)OCO3)o1,i,-11%
COc1ccc(NC(=O)c2cc(-c3ccccn3)nc3ccccc23)cc1S(=O)(=O)N(C)C,-1%,-13%
Cc1noc(C)c1C(=O)NC(C)c1ccc(Cl)cc1Cl (stereo not given),i,-6%
Cc1ccc(-n2cc(-c3ccc([N+](=O)[O-])cc3)[nH]c2=S)c(C)c1,?,-21%
COC(=O)Nc1nc(-c2ccc(F)cc2)c(C)s1,-31%,-13%
COc1ccccc1CNC(=O)C[n+]1ccccc1,/,?
COc1ccc(CNC(=O)C(=O)Nc2c3c(nn2-c2ccccc2)CSC3)cc1,?,-28%
Cc1ccsc1C(=O)OCC(=O)NCc1cccs1,i,-11%
CCOC(=O)c1c(C)sc(Sc2ccc(Cl)cc2[N+](=O)[O-])c1OC,/,-34%
CCC1CCCCN1S(=O)(=O)c1ccc(NC(=O)C2CCN(C(=O)c3ccco3)CC2)cc1 (stereo not given),-11%,-24%
O=C(NCC12CC3CC(CC(C3)C1)C2)c1cc2nc(-c3ccc(F)cc3)cc(C(F)(F)F)n2n1,-19%,-18%

# Structures shown so far containing a tert-butyl group:
SMILES,Vaccinia mCherry,VACV Venus inh
CC(C)(C)c1ccc(C(=O)N2CCC2(C)C(=O)NCc2cccs2)cc1 (stereo not given),29%,1%
CN(CCc1ccccn1)C(=O)Nc1ccc(C(C)(C)C)cc1,-9%,-27%

# Quoted at random: 4 compounds from above.
SMILES,Vaccinia mCherry,VACV Venus inh
CCOc1ccccc1NC(=O)c1nc(S(=O)(=O)Cc2ccccc2F)ncc1Cl,21%,-8%
CCOc1cc(/C=N/n2cnnc2)ccc1OS(=O)(=O)c1ccc(C)cc1,-2%,2%
Clc1ccccc1-c1nnc(-c2ccc3c(c2)OCO3)o1,i,-11%
COc1ccc(NC(=O)N(C)C[C@H]2Oc3c(NS(=O)(=O)c4cccs4)cccc3C(=O)N([C@@H](C)CO)C[C@@H]2C)cc1,i,-9%

# Next part.
SMILES,Vaccinia mCherry,VACV Venus inh
COc1ccc(C=C2NC(=S)NC2=O)cc1,-10%,1%
O=C(Nc1ccc(N2CCCC2)cc1)c1ccccc1F,i,-1%
COc1ccc(C(=O)NCC(=O)NCC(c2ccco2)N(C)C)cc1OC (stereo not given),i,-6%
Cn1nnc2c(N3CCN(c4cccc(Cl)c4)CC3)ncnc21,-22%,-15%
Cc1ccc(CNC(=O)c2ccc3c(c2)NC(=O)C(CS(=O)(=O)Cc2ccc(F)cc2)N3)cc1 (stereo not given),-13%,-7%
C=CCc1ccc(OCCCCNC2CCCC2)c(OC)c1,i,-20%
COCCN1C(=O)N[C@@H](CCc2ccccc2)[C@H](C(=O)OC)[C@H]1C,-18%,-8%
O=C(N[C@@H](Cc1ccccc1)C(=O)OCc1ccccc1)c1nc[nH]c1C(=O)N1CCN(c2ccccc2)CC1,i,-20%
Cc1cc(NC(=O)c2ccc(Cl)cc2)ccc1NC(=O)c1ccccc1Cl,-11%,-11%
Cc1ccc(NC(=O)CSc2nc3ccccc3c(=O)n2CCCC(=O)NCCCN2CCOCC2)cc1,-13%,-11%
Cc1cccc(C)c1NC(=O)CSc1nc2ncccc2o1,2%,-5%
Cc1ccc(CCNC(=O)c2ccc(CNS(=O)(=O)c3ccc(C)cc3)cc2)cc1,-19%,-11%
COC(=O)C1=CN(c2ccc(C)cc2)C(N)=C(C#N)C1c1ccc(OC)cc1 (stereo not given),-7%,?
COc1ccc(-c2cn3nc(N4CCC(C(=O)Nc5ccccc5OC)CC4)sc3n2)cc1,-12%,-12%
CCC(CC)c1nnc(NC(=O)CN2C(=O)c3ccccc3C2=O)s1,-2%,-16%
O=C(NCCn1ccc2ccccc21)c1ccc(Cl)cc1,-18%,-15%
O=C1OC(c2ccco2)=N/C1=C\c1ccc(-c2cccc(C(F)(F)F)c2)o1,i,-6%
CSc1ncccc1C(=O)OCC(=O)c1cccc(Br)c1,-14%,-2%
CN(CC(=O)NCC(c1ccccc1)N1CCCC1)S(=O)(=O)c1ccc(Cl)cc1 (stereo not given),-3%,-15%
O=C(/C=C/C=C/c1ccc2c(c1)OCO2)N1CCCCC1,-3%&-8%,-2%&-1%
COC(=O)Cc1ccc(NC(C)=O)cc1,i,-7%
C(=N\Nc1ccccn1)/c1ccc2c(c1)OCCO2,-17%,-21%
O=C(CSc1nnc(CNC(=O)c2cccs2)o1)Nc1cccc(C(F)(F)F)c1,-14%,-12%
Cc1ccccc1CNC(=O)c1cc2cc(S(=O)(=O)N3CCCCC3)ccc2n1C,-23%,-25%
CCc1nnc(NS(=O)(=O)c2ccc(NC(=O)OC)cc2)s1,0%,-1%

# Other compounds follow:
SMILES,Vaccinia mCherry,VACV Venus inh
COc1cccc(C2CC(c3cccs3)=NN2C(=S)Nc2ccccc2)c1OC (stereo not given),-16%,-8%
CN(C(=O)Cc1c(C(=O)O)n(C)c2ccccc12)c1ccc(F)cc1,6%,-3%
CC1(c2ccccc2Cl)NC(=O)N(CC(=O)NC(=O)NCc2ccco2)C1=O (stereo not given),i,-11%
O=C1CCCN1C(=O)COc1ccc([N+](=O)[O-])cc1,i,-13%
COc1ccc(/C=C2/SC(=O)N(CCNC(=O)C3COc4ccccc4O3)C2=O)cc1 (stereo not given),-20%,-10%
O=C(Nc1cccc(S(=O)(=O)N2CCOCC2)c1)C12CC3CC(CC(C3)C1)C2,i,5%
O=S(=O)(Nc1cccc(-c2cn3c(n2)SCC3)c1)c1ccccc1,0%,-17%
Cc1ccc(-c2nnc3ccc(SCC(=O)OCc4ccccc4)nn23)cc1,3%,-16%
O=C1C=C(NCc2ccco2)CCC1,-7%,-4%
COCCNC(=O)C(=O)NCCN1CCOCC1,-8%,0%
COc1ccccc1-n1c(SCC(=O)Nc2ccc(C)cc2)nc(O)cc1=O,-20%,-3%&-10%
CCOC(=O)c1c(N)n(-c2ccc(OCC)cc2)c2nc3ccccc3nc12,-17%,0%
O=C(CN1C(=O)c2ccccc2C1=O)NC1(C(=O)O)CCCC1,-13%,-9%
O=C(Cc1cccc(NC(=O)C2CCCN(C(=O)C3CCC3)C2)c1)Nc1cccc(C(=O)N2CCCC2)c1 (stereo not given),i,-15%
CCN(CC)S(=O)(=O)c1ccc2c(c1)c(=O)c(C(=O)N(C)Cc1ccccc1)cn2C,0%,7%
O=C(Nc1c2c(nn1-c1ccccc1)CS(=O)(=O)C2)c1ccccc1C(F)(F)F,i,-12%
CSc1nnc(-c2cc3c(s2)-c2ccccc2CC3)o1,/,-13%
Cc1cc(C)c2oc(C(=O)Nc3ccc(S(=O)(=O)N(C)c4ccccc4)cc3)cc(=O)c2c1,12%,-7%
CC(NC(=O)OCc1ccccc1)C(=O)N1CC(O)CC1C(=O)O (stereo not given),0%,-26%
COc1ccc(NS(=O)(=O)c2cccc3nonc23)c(OC)c1,i,-12%
CCOc1ccc(C(C)=O)cc1COC(=O)c1cnc(Cl)c(Cl)c1,i,-6%
CN(C)C(CNC(=O)C1CC(=O)N(c2cccc(C(F)(F)F)c2)C1)c1ccccc1 (stereo not given),?,-21%
COc1cccc(C(=O)NCC2(c3ccccc3)CCCC2)c1,1%,-8%
COc1ccccc1N(CC(=O)NC(C)(C)C)C(=O)C1CSC(=O)C1 (stereo not given),-13%,-16%
Cc1cc(C)c(OCC(=O)Nc2ccc(S(=O)(=O)N3CCCC3)cc2)c(C)c1,-21%,-14%

# Remaining list, next part
SMILES,Vaccinia mCherry,VACV Venus inh
Cc1ccc(NC(=O)C2CCCN(S(=O)(=O)c3ccc(C)cc3)C2)cc1 (stereo not given),-5%,-9%
c1ccc(-n2nnc3cnccc32)cc1,-25%,-13%
COCCn1c(=S)[nH]c2sc3c(c2c1=O)CCCC3,-13%,-12%
COc1cccc(Cn2c(SCC(=O)N3CCN(c4ccc(F)cc4)CC3)nc3ccccc32)c1,-29%,?
N/C(=N\OC(=O)CCCOc1ccccc1)c1ccc([N+](=O)[O-])cc1,-18%,-1%
COc1cccc(-c2ocnc2C(=O)Nc2ccc(N3CCOCC3)cc2N2CCOCC2)c1,?,-2%
O=S(=O)([N-]c1nc2ccccc2nc1-[n+]1ccccc1)c1ccc(Cl)cc1,/,-13%
COc1c(C)cccc1C(=O)Nc1ccc(-c2nc3ccccc3s2)c(Cl)c1,?,?
COc1ccc(NC2=C(c3ccc(C(F)(F)F)cc3)C(=O)c3ccccc32)cc1,-5%,10%
Cc1ccc2nc(N(CCCN(C)C)C(=O)c3ccc(Br)s3)sc2c1,-1%,-24%&-8%
O=C(CCN1C(=O)c2ccccc2C1=O)Nc1ccc2c(c1)OCCO2,-9%,-8%
COc1ccc(-c2c(-c3ccccc3OC)sc3ccccc23)cc1C=O,-4%,-17%
COC(=O)C1=C(c2ccc(OC)c(OC)c2)C[C@@H]2CC[C@H]1N2C(=O)N1CCC(C)CC1,-1%,-13%
COc1cc2c(cc1OC)CN(CC(=O)Nc1ccc(F)cc1F)CC2,-8%,-15%
COc1cc(OC)cc(C(=O)NCC(=O)N2CCN(c3ccc(O)cc3)CC2)c1,-23%,-2%
Cc1ccccc1S(=O)Cc1ccc(C(=O)NC2CCCCCC2)o1 (stereo not given),-16%,-10%
CCCn1c(=O)c(C(=O)OCC)c(O)c2cc(Br)ccc21,i,1%
O=C(O)COc1ccc(Br)cc1/C=C1/SC(=O)N(CC(=O)N2CCCC2)C1=O,/,-29%
CN(C)C(=O)c1ccc(NC(=O)COC(=O)C2=COCCO2)cc1,-11%,-6%
COc1ccccc1C(=O)NC(=S)Nc1ccccc1N1CCCCC1,-12%,-2%
COc1ccc2c(CSc3nc4nc(C)cc(C)n4n3)cc(=O)oc2c1,i,-13%
COc1cc2c(-c3ccc4[nH]ccc4c3)c(-c3ccc(C#N)cc3)oc(=O)c2cc1OC,?,-30%
COc1ccc(C(=O)Nc2cccc([N+](=O)[O-])c2)cc1Br,-23%,?
CCOc1ccc(N2CC(C(=O)NCCN3C(=O)S/C(=C/c4cccnc4)C3=O)CC2=O)cc1 (stereo not given),-9%,-4%
CCOc1ccccc1N1C(=O)NC(=O)/C(=C/c2ccc3c4c(cccc24)CC3)C1=O,/,-11%

# Record cards (already shown).
# COc1ccc(C(=O)Nc2cccc([N+](=O)[O-])c2)cc1Br in the list: Vaccinia mCherry: -23%; VACV Venus inh: ?
# Cc1ccc(NC(=O)C2CCCN(S(=O)(=O)c3ccc(C)cc3)C2)cc1 (stereo not given) in the list: Vaccinia mCherry: -5%; VACV Venus inh: -9%
# COc1ccccc1C(=O)NC(=S)Nc1ccccc1N1CCCCC1 in the list: Vaccinia mCherry: -12%; VACV Venus inh: -2%

# Further results:
SMILES,Vaccinia mCherry,VACV Venus inh
O=S(=O)(Nc1cccc(-c2ccc(N3CCCCCC3)nn2)c1)c1ccccc1F,-14%,-13%
C(=C\c1ccnc2ccccc12)/c1ccc2c(c1)OCO2,-18%,-17%
COc1ccc(C2=NN(c3nc4ccccc4s3)C(=O)C2)cc1,-5%,-1%
CCC1(c2ccccc2)NC(=O)N(CC(=O)N(c2ccccc2)C2CCS(=O)(=O)C2)C1=O (stereo not given),i,-13%
CCOc1ccc(NC(=O)CCSc2ccc3ccccc3n2)cc1,-11%,-8%
CCn1c(SCC(=O)C(C)(C)C)nnc1-c1cnccn1,i,-9%
COCCN(Cc1nc(C(c2ccccc2)c2ccccc2)no1)C(C)C,i,-2%
CC(=NNC(=O)c1cccc(S(=O)(=O)N2CCCC2)c1)c1ccccc1,-15%,-18%
CN1CCN(c2ccc(NC(=S)NC(=O)c3cccc4c(Br)cccc34)cc2)CC1,-9%,-6%
O=C(O)COc1ccc(/C=C/C(=O)c2ccc(C3CCCCC3)cc2)cc1,i,-9%
COc1ccc(/C=N/Nc2nc(Nc3ccccc3)nc(N3CCCCC3)n2)cc1OC,-23%,?
Cn1nnnc1SCCCNCc1cc(Cl)ccc1OCc1ccccc1,-18%,-26%
Cc1nc(NC2=NCN(CCCN3CCOCC3)CN2)nc2c(C)cccc12,-13%,-5%
CCCc1nc2c(c(=O)c3ccccc3n2C)c(=O)n1C1CCCCCC1,-18%,-16%
c1ccc2c(c1)NC1(CCCC1)n1c-2nc2ccccc21,-4%,-22%

# High-throughput results: PubChem, National Center for Advancing Translational Sciences (NCATS)

# Random draw from the library; 0.82% or so of the library scored in one or more.
